Mtb H37Rv = Mycobacterium tuberculosis H37Rv growth inhibition, cell based, confirmatory dose response (AID 1949) | actives 1.6% (n = 100,000) | inhibition, % at 10 µg/mL, or IC50 in µg/mL where a hit was titrated | M. tuberculosis H37Rv growth inhibition | most inactive calls were filed without a number and no value below 0 was filed;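 active = confirmed in a dose series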;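 note: bacteria grown 7 days with compound before Alamar blue readout; 0% = untreated bacteria and 100% = reference antibiotic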
Active calls of the source: *; i = inactive. These rows are one share of the data; the hit share may differ from the screen's.

SMILES | Mtb H37Rv
Cc1cc(Cl)ccc1NC(=S)N1CCN(Cc2ccccc2)CC1 | i
CNC(=O)COc1ccc(Cl)c2cccnc12 | i
Cc1cc(OCC(=O)N2CCN(C=O)CC2)cc(C)c1Cl | i
COc1cc(OC)c(C2NC(=S)NC(C)=C2C(N)=O)cc1Br (stereo not given) | i
Cc1ccc(C(C)C)cc1OCCCN1CCOCC1 | i
COC(=O)c1ccccc1NC(=O)CC12CC3CC(CC(C3)C1)C2 | 3%
CCOC(=O)c1cnc2cc(-c3ccc(OC)cc3)nn2c1-c1ccccc1 | i
Cc1cc(Cl)ccc1NC(=O)Nc1c(C)n(-c2ccccc2)c(=O)n1C | i
S=C(NCc1cccs1)Nc1ccc(Oc2ccccc2)cc1 | 14%
C=CCNCCCCOc1ccc(Cl)cc1Br | 22%
COc1ccc(/C=C2\CCc3ccccc3C2=O)cc1Cn1nnc2ccccc21 | i
O=C(O)C1C2C=CC3(CN(CCc4ccccc4)C(=O)C13)O2 (stereo not given) | i
COc1ccc(N(CC(=O)Nc2cc([N+](=O)[O-])ccc2OC)S(=O)(=O)c2ccc(C)cc2)cc1Cl | i
COc1cc(CNCCO)cc(Br)c1OCc1cccs1 | 0%
C=CCOc1ccc(COC(C)=O)cc1OC | i
COc1ccccc1NC(=O)CN(c1ccc(C)c(C)c1)S(=O)(=O)c1ccc(C)cc1 | i
COC(=O)c1ccccc1NC(=O)CSc1nnc(-c2cccc(NC(C)=O)c2)n1C | i
CCOc1cc(/C=C\c2[nH]c(=O)[nH]c(=O)c2[N+](=O)[O-])ccc1OCC(=O)Nc1cccc(C)c1 | i
Cc1c(C#N)c2ccccc2n1CC(=O)NCCc1ccccc1 | i
CCOC(=O)c1cnc(C(C)(C)C)[nH]c1=O | 1%
COc1ccc(CCC(=O)Nc2ccc(-c3noc(-c4cccc([N+](=O)[O-])c4C)n3)cc2)cc1 | 5%
CC1(C)CC(=O)C2=C(C1)NC1=C(C(=O)c3ccccc31)C2c1cccc2ccccc12 (stereo not given) | 0%
Cc1ccc(N2CCN(C(=O)N(C)C)CC2)cc1C | i
CCNC(=S)N1CCN(Cc2ccc(F)cc2)CC1 | i
C/C=C/c1ccc(OCCn2nnc3ccccc32)c(OC)c1 | i
COc1ccc(OCC(=O)Nc2ccc(S(=O)(=O)N(C)Cc3ccccc3)cc2)cc1 | i
CS(=O)(=O)N(CC(=O)Nc1ccccc1Cl)c1cc(Cl)ccc1Cl | i
Cc1cccc(NC(=O)c2cccc(NC(=O)c3ccccc3)c2)c1 | 7%
Cc1cc(C)nc(NS(=O)(=O)c2ccc(NC(=O)c3sc4ccccc4c3Cl)cc2)n1 | i
Cc1cc(=O)[nH]c(SCCOCCOc2ccccc2-c2ccccc2)n1 | 3%

Shown as labelled records: entries from further up
> COc1ccc(CCC(=O)Nc2ccc(-c3noc(-c4cccc([N+](=O)[O-])c4C)n3)cc2)cc1
- Mtb H37Rv: 5%
> CC1(C)CC(=O)C2=C(C1)NC1=C(C(=O)c3ccccc31)C2c1cccc2ccccc12 (stereo not given)
- Mtb H37Rv: 0%

Not a retest: 7 of the compounds above.
SMILES | Mtb H37Rv
CCNC(=S)N1CCN(Cc2ccc(F)cc2)CC1 | i
C/C=C/c1ccc(OCCn2nnc3ccccc32)c(OC)c1 | i
COc1ccc(OCC(=O)Nc2ccc(S(=O)(=O)N(C)Cc3ccccc3)cc2)cc1 | i
CS(=O)(=O)N(CC(=O)Nc1ccccc1Cl)c1cc(Cl)ccc1Cl | i
Cc1cccc(NC(=O)c2cccc(NC(=O)c3ccccc3)c2)c1 | 7%
Cc1cc(C)nc(NS(=O)(=O)c2ccc(NC(=O)c3sc4ccccc4c3Cl)cc2)n1 | i
Cc1cc(=O)[nH]c(SCCOCCOc2ccccc2-c2ccccc2)n1 | 3%

More compounds follow.
SMILES | Mtb H37Rv
CN(c1ccccc1C(=O)Nc1ccc(Br)cc1F)S(C)(=O)=O | i
Cc1ccc(C)c(OCCCC(=O)Nc2ccccc2C(N)=O)c1 | 4%
CC1(C)CC2(CCO1)OC(=O)CC2C(=O)Nc1cccc2ccccc12 (stereo not given) | i
CCc1ccc(OCCCC(=O)Nc2nc3ccc(C)cc3s2)cc1 | i
Cc1ccc(S(=O)(=O)N(CC(=O)Nc2ccccc2C)c2ccc(C(C)C)cc2)cc1 | i
O=C(Oc1ccccc1[N+](=O)[O-])C1CCCCC1 | i
COc1ccccc1NC(=O)CCCC(=O)OCC(F)(F)C(F)F | i
CCc1ccccc1N(CC(=O)NC1CCCCCC1)S(C)(=O)=O | i
O=C1CCCC2=C1C(c1ccccc1Cl)n1c(nc3ccccc31)N2 (stereo not given) | i
COc1ccccc1OS(=O)(=O)c1ccc(NC(C)=O)cc1 | i
CCC(C)NCCCCOc1ccc(Cl)cc1C (stereo not given) | 4%
COc1ccccc1C(=O)Nc1ccc(N2CCCCC2)cc1 | 42%
CC1=C(C(=O)OC(C)C)C(c2cc(Br)ccc2F)CC(=O)N1 (stereo not given) | i
CCCC(=O)N1CCN(c2ccc(NC(=O)c3ccc(F)cc3)cc2)CC1 | i
CC(=O)c1cccc(NC(=O)c2ccc3c(c2)C2C4CCC(C4)C2C(c2ccccc2)N3)c1 (stereo not given) | 2%
COc1ccc(C(=O)NNC(=O)Nc2ccccc2C(F)(F)F)c(OC)c1 | i
COc1cccc(OCCNCc2ccccc2)c1 | 4%
Cc1ccc(S(=O)(=O)CC(=O)c2ccc(-c3ccccc3)cc2)cc1 | i
COc1ccc(CNC(=O)c2cc3cccc(OC)c3oc2=O)cc1 | i
CS(=O)(=O)N1CCCC(C(=O)NCc2ccccc2)C1 (stereo not given) | i
COC(=O)c1ccc(C)c(NC(=O)c2ccccc2N(C)S(=O)(=O)c2ccc(C)cc2)c1 | i
CCCN(CCC)S(=O)(=O)c1ccc(NS(=O)(=O)c2ccc([N+](=O)[O-])cc2)cc1 | i
CCOC(=O)N1CCN(S(=O)(=O)c2ccc3c(c2)OCCO3)CC1 | i
O=C(Cc1cccc2ccccc12)NC(=S)NCC1CCCO1 (stereo not given) | i
O=C(CCSc1nnnn1-c1ccccc1)N1CCOCC1 | i
CC(NS(=O)(=O)c1cc(Cl)ccc1Cl)C(=O)NC1CCCC1 (stereo not given) | i
O=Cc1cc([N+](=O)[O-])ccc1N1CCOCC1 | i
O=C(CSc1n[nH]c(-c2ccncc2)n1)Nc1ccccc1Cl | i
Cc1ccc(-c2nn(C)c(=O)c3ccccc23)cc1S(=O)(=O)N1CCN(CCO)CC1 | i
COc1ccc(C2(CNC(=O)c3ccc(Br)o3)CCOCC2)cc1 | i
COc1ccc(NC(=O)CN(c2cc(C)ccc2C)S(=O)(=O)c2ccccc2)c(OC)c1 | i
CCC(=O)Nc1cc(C)c(C)cc1[N+](=O)[O-] | 3%
CCOc1ccc(NC(=O)C(C)(c2ccccc2)c2ccccc2)cc1 | i
COc1ccc(OC)c(N(CC(=O)Nc2ccc(C(C)C)cc2)S(C)(=O)=O)c1 | i
CCOc1ccc(NC(=O)CSc2nnc(COc3c(C)cccc3C)o2)cc1 | i
CC(=O)Oc1ccccc1C(=O)N1CC(C)OC(C)C1 (stereo not given) | i
CCN1CCN(C(=S)Nc2cccc(Cl)c2)CC1 | 2%
O=C(Nc1cccc(-c2nnc(-c3ccccc3)o2)c1)C(F)(F)F | 2%
CCSc1nsc(SCC)c1C(N)=O | 3%
Cc1cc(C)cc(NS(=O)(=O)c2ccc(NC(=O)c3ccccc3Br)cc2)c1 | i
O=[N+]([O-])c1ccc(COc2ccc(CO)cc2Cl)cc1 | 4%
O=C(CCNc1ccc(-c2ccccc2)cc1)c1ccco1 | <0.1µg/mL*
O=C(Nc1nc2c(s1)CCc1ccccc1-2)c1ccco1 | i
O=C(Nc1ccccc1C(=O)N1CCCCC1)c1ccc(Cl)c(Cl)c1 | i
COc1ccc(CCNC(=O)C2CCN(C(=O)c3cccc(Cl)c3)CC2)cc1 | i
Cc1cccc(C(=O)Nc2sc3c(c2C(=O)Nc2cccnc2)CCCC3)c1 | 2%
CSc1cccc(NC(=O)CN(c2cccc(Cl)c2C)S(C)(=O)=O)c1 | i
Cc1ccc(F)c(NC(=O)c2ccccc2Sc2ccccc2C#N)c1 | i
COc1ccc(C2CC(=O)Nc3ccc4ccccc4c32)c(OC)c1OC (stereo not given) | 49%
O=C(Nc1ccc(I)cc1C(=O)NCc1cccnc1)c1ccccc1Cl | 0%
COC(=O)c1cn(-c2ccccc2)nc1-c1cc2ccccc2oc1=O | i
COc1cc(NC(=O)c2ccccc2)ccc1Cl | i
O=C(CSc1ccccn1)Nc1nccs1 | 1%
CCOc1ccccc1C1Nc2ccccc2NC2=C1C(=O)CC(c1ccc(OC)c(OC)c1)C2 (stereo not given) | i
CCC(C)c1ccc(NS(C)(=O)=O)cc1 (stereo not given) | 3%
Cc1ccc(C(=O)N2CCN(c3ccc(NC(=O)COc4c(C)cc(C)cc4Cl)cc3)CC2)cc1 | 8.7µg/mL*
C=CCOc1ccc(/C=C2\C(=O)N(c3ccc(S(N)(=O)=O)cc3)N=C2C)cc1OC | i
O=C(c1cccc(Cl)c1)N1CCN(S(=O)(=O)Cc2ccccc2)CC1 | i
CC(=O)CC1=CC(=O)Nc2ccccc2N1 | i
Cc1ccc(C)c(OCC(O)CN2CCC(C)CC2)c1 (stereo not given) | i

An excerpt from above in order of molar mass, low to high:
SMILES | Mtb H37Rv
CC(=O)Oc1ccccc1C(=O)N1CC(C)OC(C)C1 (stereo not given) | i
CCOC(=O)N1CCN(S(=O)(=O)c2ccc3c(c2)OCCO3)CC1 | i
COc1ccc(OC)c(N(CC(=O)Nc2ccc(C(C)C)cc2)S(C)(=O)=O)c1 | i
Cc1ccc(S(=O)(=O)N(CC(=O)Nc2ccccc2C)c2ccc(C(C)C)cc2)cc1 | i

(next part)
SMILES | Mtb H37Rv
CC(NC(=O)C(C)c1ccc([N+](=O)[O-])cc1)c1ccccc1 (stereo not given) | i
COc1ccc(OC)c(NC(=O)COc2cc(C)c(Br)c(C)c2)c1 | i
Cc1ccn(C(=O)c2ccc(C)c(Br)c2)n1 | i
O=C(O)C1C2C=CC(O2)C1C(=O)NCCc1ccccc1 (stereo not given) | i
COc1cccc2cc(C(=O)N3CCN(C/C=C/c4ccccc4)CC3)c(=O)oc12 | i
O=C(c1ccccc1)N1CCN(S(=O)(=O)c2cccc([N+](=O)[O-])c2)CC1 | i
Clc1ccc(OCCOc2ccc(Br)cc2)c2ncccc12 | 1%
Cc1ccc(-c2c(C)n([O-])cc(-c3ccccc3)[n+]2=O)cc1 | i
Cc1cc(Cl)ccc1NC(=S)N1CCCC(C)C1 (stereo not given) | 4%
Cc1ccc(C(=O)Nc2cccc(C#N)c2)cc1Cl | 2%
O=C(NCCc1ccccc1)C(=O)NC1CC1 | 1%
CCOc1ccc(CNC(=O)Nc2ccccc2)cc1 | i
C=CCOCCN1C(=O)C2C(c3ccccc3)C=CC(c3ccccc3)C2C1=O (stereo not given) | i
O=C(NCC1CCCO1)c1ccc(S(=O)(=O)N2CCCCC2)cc1 (stereo not given) | i
CC(C)(C)CC(C)(C)NC(=O)Cc1ccc(F)cc1 | i
CSc1ccccc1NC(=O)c1cccnc1 | i
Cc1[nH]c2ccccc2c1C1(O)C(=O)N(Cc2ccccc2F)c2ccccc21 (stereo not given) | i
Cc1c(C=O)c2ccccc2n1CC(=O)N1CCc2ccccc21 | i
O=C1CC(C(=O)Nc2nncs2)C(c2ccccc2)O1 (stereo not given) | i
Cc1ccccc1OCc1nnc(SCc2ccc(F)cc2)n1C | 2%
O=C(Cn1c(C(F)(F)F)nc2ccccc21)NCc1ccccc1 | i
CCN(CC(=O)NC1CCCC1)S(=O)(=O)c1ccc(Cl)cc1 | i
CCNc1ccc(S(=O)(=O)C(F)(F)C(F)C(F)(F)F)cc1[N+](=O)[O-] (stereo not given) | i
COCCCNC(=O)c1c(NC(=O)COc2ccccc2[N+](=O)[O-])sc2c1CCCC2 | i
COc1cc(/C=C(/C#N)c2nc3ccccc3n2C)ccc1OCc1ccc(F)cc1 | i
Cc1ccc(NC(=S)NCC2CCCO2)c(OC(F)F)c1 (stereo not given) | i
CCN(CC)S(=O)(=O)c1cc(C(=O)Nc2c(C)nn(Cc3ccc(Br)cc3)c2C)c(Cl)cc1Cl | i
Cc1ccc(N(CC(=O)Nc2cccnc2)S(C)(=O)=O)cc1C | 2%
CC1CN(CCCOc2ccc(Cl)c3ccccc23)CC(C)O1 (stereo not given) | i
OCc1ccc(OCc2cccc(F)c2)c(Cl)c1 | 1%
CCC(=O)Nc1ccccc1Oc1ccccc1 | i
COc1ccc(S(=O)(=O)Nc2c(C(C)C)cccc2C(C)C)cc1OC | i
C=CCn1c(SCC(=O)NCc2ccco2)nc2scc(-c3ccc(Cl)cc3)c2c1=O | i
CCOCc1nnc(NC(=O)c2cccs2)s1 | 2%
CCOc1ccc(C2C(C(=O)c3ccco3)=C(O)C(=O)N2CCCN(CC)CC)cc1OC (stereo not given) | i
COc1ccc(NC(=O)c2cc(-c3ccccc3OC(C)C)nc3ccccc23)c(OC)c1 | i
Cc1cc2nc(-c3ccco3)cc(C(F)(F)F)n2n1 | i
COC(=O)c1ccc(Nc2ncnc3ccc(Br)cc23)cc1 | i
O=C(Nc1ccc2c(c1)C(=O)N(CC1CCCO1)C2=O)c1cccc(Br)c1 (stereo not given) | i
COc1cccc(C(=O)Nc2ccc(OC(C)C)cc2)c1 | 7%
CCC(=O)Oc1ccc(NC(=O)CSCc2ccccc2)cc1 | i
Cc1cc(C)n(C(=O)COc2ccc(Cl)c(C)c2)n1 | i
Cn1c2c(c(=O)n(C)c1=O)C(c1ccc(F)cc1)C1=C(CC(C)(C)CC1=O)N2 (stereo not given) | i
Cc1nnc(Nc2ccc(C(=O)N3CCOCC3)cc2)c2ccccc12 | i
COC(=O)COc1ccc(S(=O)(=O)Nc2ccc(C(N)=O)cc2)cc1Cl | i

Bioassay records as filed in PubChem.
